NPYLR7 ag: agonists of mosquito NPYLR7 receptor, primary screen, cell-based, Aedes aegypti, calcium fluorescence, mosquito biting behavior | 270,000 compounds, 0.15% hits | HEK293T NPYLR7/Galpha15, GCaMP6s calcium fluorescence | activation, % at 10 µM | Aedes aegypti neuropeptide Y-like receptor 7 (NPYLR7); in the data active = activation above about 40%;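 note: 0% = vehicle and 100% = reference agonist at the receptor; some compounds past the cut are filed as inactive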
NPYLR7 ag max-min: further read-out of NPYLR7 ag, marked with its call; activation, %; measured here: Max-Min RFU normalised activation; some inactives read as strong as hits;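 span of the calcium signal over five minutes; 0% = vehicle and 100% = native peptide agonist; compound fluorescence can raise it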
Starred values were filed as active, the others as inactive; & = joins results of further samples. Some of the compounds tested; the hit share may differ from the screen's.

SMILES	NPYLR7 ag	NPYLR7 ag max-min
Cc1cccc(OCC2CNCCO2)c1 (stereo not given)	-4	-5
O=c1cc(-c2ccc(O)c(O)c2)oc2cc(O)cc(O)c12	1&-2	-3&-2
Cc1ccc(S(=O)(=O)N2CCCC2C(=O)Nc2ccc(OC(F)F)c(Cl)c2)s1 (stereo not given)	-5	-4
O=C(NCCCN1CCCC1)C1CCC(=O)N1C1CCCCC1 (stereo not given)	5	3
C[C@@H]1CN(C2(C(=O)NCCc3cscn3)Cc3ccccc3C2)C[C@H](C)O1	-5	-8
CCOC(=O)C1(C)CCN1C(=O)c1cccc(F)c1 (stereo not given)	-1	0
Cc1nc2c(OCCOc3ccc(F)cc3)cccn2c1N(C)C(=O)CCC1CCCC1	-5	-9
Cc1ccc(CNC(=O)c2c(C)noc2-c2ccco2)o1	-1	0
O=C(O)Cc1coc2cc(OS(=O)(=O)c3cc(Cl)ccc3Cl)ccc12	-3	-5
COc1ccc(C(NC(=O)C2CCN(CCc3c[nH]c4ccccc34)CC2)c2cccs2)cc1 (stereo not given)	11	0
COCC(=O)NN=C(C)CC(=O)N1CCCC1	3	4
CCc1nc2c(OCc3ccc(S(C)(=O)=O)cc3)cccn2c1N(C)C(=O)COc1ccccc1	-4	-11
CCC(NC(=O)c1ccc(NC(=O)C2CC2)s1)c1ccc(Br)cc1 (stereo not given)	-2	-4
COc1ccc(C(=O)CSc2nnc(NC(C)(C)C)s2)cc1	10	10
CN1C(=O)/C(=C2\SC(=O)N(c3ccc(O)cc3)C2=O)c2ccccc21	1	-2
O=C(NCc1ccncc1)c1ccccc1N1CCC(NS(=O)(=O)c2ccccc2)CC1	0	6
Cc1cc(C(=O)N[C@H](CO)CC(C)C)c(NC(=O)C(C)(C)C)s1	-5	-6
COCCC(=O)N(c1ccccc1F)C1CCCC1	8	3
COc1cccc(N2CCN(c3nccc(N4CCC(O)C4)n3)CC2=O)c1 (stereo not given)	4	2
COc1ccc(C(=O)N(Cc2ccco2)Cc2cc(NC(=O)C3CCC3)ccc2N(C)C)cc1	-5	-4
COc1cc(CNc2ccc3ncc(-c4cccc(N)c4)n3n2)cc(OC)c1OC	-8	-12
N#Cc1cccc(NC(=O)CS(=O)Cc2cccc(C(F)(F)F)c2)c1 (stereo not given)	5	3
CCc1nc(-c2ccccc2)nc(N2CCN(C(=O)c3cccs3)CC2)c1Cc1cccc(C)c1	7	10
Cc1cc(NC(=O)CCCc2ccccc2)nc2c1c(=O)oc1ccccc12	0	-2
Cc1nc2sccn2c1C(=O)N1CCNCC1C(=O)N1CCOCC1 (stereo not given)	5	3
COc1ccc(NC(=O)C(=O)c2ccc(C3CCCCC3)cc2)cn1	-12	-11
COc1ccc(OC)c(NC(=O)CCc2c(C)nn(-c3nc(C)cc(=O)[nH]3)c2C)c1	-2	-3
c1cc2occc2c(N2CCC3(CCCO3)CC2)n1	7	4
Cc1nnc(C)n1-n1ccc2nc3ccn(-c4ccccn4)c(=O)c3cc2c1=O	4	8
CCC(CC)C(=O)N(Cc1ccc(F)cc1)Cc1cc(NC(=O)c2ccco2)ccc1N(C)C	1	15
CCN1CCN(CC(=O)N(CCc2ccc(OC)cc2)CC2CCN(C)CC2)CC1	9	3
COC(=O)C1=C(C)N(c2cc(C)cc(C)c2)C(=O)/C1=C\c1ccc(O)cc1	-11	-16
COCC(=O)NCC(c1ccccc1C)N(C)C (stereo not given)	4	2
O=C(OCC(=O)N1CCCC1)C(=Cc1cccs1)c1cccs1	-2	-3
Cc1ccc(-c2ccccc2-n2cnnc2)o1	2	-1
COc1ccc(C2=N/C(=C/c3ccc(N(C)C)cc3)C(=O)O2)cc1Br	-5	-10
COc1cc2c(cc1OC)C(=O)CC(C)S2 (stereo not given)	5	8
COc1ccc([C@@H]2CC(=O)c3c(O)cc(O[C@@H]4O[C@H](CO[C@H]5O[C@@H](C)[C@H](O)[C@@H](O)[C@H]5O)[C@@H](O)[C@H](O)[C@H]4O)cc3O2)cc1O	-9	-12
COc1cc(C(=O)N2CCOC(COCc3cccc(C(F)(F)F)c3)C2)cc(OC)c1C (stereo not given)	2	0
COc1ccc(N2CCN(C(=O)c3ccccc3OC)C(C)C2=O)cc1OC (stereo not given)	-8	1
O=C1c2ccccc2-c2onc3c(Br)cc(NC(=O)C(F)(F)F)c1c23	15	16
CC(C)c1cc(C(=O)N(Cc2cnn(C)c2)C2CC2)no1	2	2
Cc1cnc2c(c1SCC(=O)Nc1ccc(C(N)=O)cc1)c(=O)n(C)c(=O)n2C	8	14
CC1CC(C)CN(S(=O)(=O)N2CC(C)OC(C)(C)C2)C1 (stereo not given)	9	10
CC1CN(C(=O)OC(C)(C)C)c2ccccc2N1Cc1ccc(C#N)cc1 (stereo not given)	8	5
C=COC(=O)CSc1nc(C)c(CC)c(C)c1C#N	-6	-15
CC(C)c1c(O)cc(-c2cccs2)n(-c2ccc(Cl)cc2)c1=O	9	8
CCNC(=O)N1CCN(C(=O)c2cc(-c3ccc(Cl)cc3)n(-c3cccc(F)c3)c2C)CC1	-4	3
COc1ccc(-c2cc(C(=O)N3CCC4(CC3)OCCO4)c(C)n2-c2ccc(C)cc2)cc1	-2	6
COc1ccc(-c2cnc3ncnn3c2N2CCN(CCc3ccncc3)CC2)cc1	10	8

Next part
SMILES	NPYLR7 ag	NPYLR7 ag max-min
Cc1nc2ncccn2c1C(=O)N1CCC(n2cc(CC(C)C)nn2)CC1	-5	-10
Cc1ccn2c(NCc3ccccc3)c(-c3ccc(Cl)cc3)nc2c1	7	13
Cc1cccc(CN2CCN(c3nc4c(c(=O)[nH]c(=O)n4C)n3CCC(C)C)CC2)c1	-5	-7
CCC1(CC)CN(c2ccnc(C(=O)NCCOC)c2)CCO1	-1	-3
O=C(Nc1ccc(C(F)(F)F)cc1)Nc1ccc(N2CCC(Cc3ccccc3)CC2)c(C(=O)NCCN2CCOCC2)c1	-15	-17
Cc1ccn2c(NC(=O)C3CCC3)c(-c3cccc(F)c3)nc2c1	-3	5
CSc1ccc(CC2(C)C(=O)Nc3cc(C(F)(F)F)ccc32)cc1 (stereo not given)	-1	2
Cn1cc(/C=C(/C#N)c2ccc(C(=O)O)cc2)c2ccccc21	3	-1
Cc1nn(-c2cccc(C(=O)N3CCCC(N)CC3)c2)c(=O)c2ccccc12 (stereo not given)	1	2
COc1ccc2oc(=O)c(-c3nnc(Nc4ccc(Oc5ccc6ccccc6c5Cl)c(Cl)c4)s3)cc2c1	-3	1
CC1CCc2ccccc2N1C(=O)CNc1ccc(-n2nccn2)cc1 (stereo not given)	-5	-6
CCOC(=O)c1nc2ccccc2nc1N1CCCN(S(=O)(=O)Cc2ccccc2)CC1	5	3
CCS(=O)(=O)N(CCC(C)C)CC(=O)N1CCc2sccc2C1COc1ccc(Cl)cc1 (stereo not given)	-1	3
CC(C)(C)OC(=O)N1CCNC(=O)C1CC(=O)OCC1CCCO1 (stereo not given)	3	2
O=C(NC1CC(=O)N(CCc2ccc(F)cc2)C1)c1cnccn1 (stereo not given)	29	29
CC(C)(C)c1ncc(NC(=O)NC2CCCC2)cn1	4	3
O=C(NNC(=S)NCc1ccco1)C(=O)NNC(=S)NCc1ccco1	2	1
Cc1ccc(C)c(CC(=O)N(C)CCCN2c3ccccc3CCc3ccccc32)c1	-6	-11
O=C(Nc1cccc(-c2cc3ccccc3[nH]2)c1)C1CCN(C(=O)c2ccco2)CC1	22	12
O=S(=O)(NCCNc1nc(-c2cccs2)nc2cc(Cl)ccc12)c1cccc(C(F)(F)F)c1	-4	6

A different layout for four compounds above:
> CCOC(=O)c1nc2ccccc2nc1N1CCCN(S(=O)(=O)Cc2ccccc2)CC1
- NPYLR7 ag: 5
- NPYLR7 ag max-min: 3

> CCS(=O)(=O)N(CCC(C)C)CC(=O)N1CCc2sccc2C1COc1ccc(Cl)cc1 (stereo not given)
- NPYLR7 ag: -1
- NPYLR7 ag max-min: 3

> CC(C)(C)OC(=O)N1CCNC(=O)C1CC(=O)OCC1CCCO1 (stereo not given)
- NPYLR7 ag: 3
- NPYLR7 ag max-min: 2

> O=C(NC1CC(=O)N(CCc2ccc(F)cc2)C1)c1cnccn1 (stereo not given)
- NPYLR7 ag: 29
- NPYLR7 ag max-min: 29

Looked up one by one from the entries so far, 2 records:
SMILES	NPYLR7 ag	NPYLR7 ag max-min
CCS(=O)(=O)N(CCC(C)C)CC(=O)N1CCc2sccc2C1COc1ccc(Cl)cc1 (stereo not given)	-1	3
CC(C)(C)c1ncc(NC(=O)NC2CCCC2)cn1	4	3

Continued.
SMILES	NPYLR7 ag	NPYLR7 ag max-min
COc1ccc(CCN(Cc2ccc(C)o2)C(=O)CN(CC2CCCO2)C(=O)Nc2cccc(F)c2)cc1OC (stereo not given)	-3	-5
COC[C@H]1C[C@H]2C[C@H](O)[C@@H](NC(=O)Nc3ccc4c(c3)OCO4)[C@@]2(O)CO1	6	17
CN(C)CCCn1c(=O)n(Cc2c(F)cccc2F)c2ccc(C(=O)O)cc21	3	-1
O=C(C(=O)N1CCC2(CCOCC2)CC1)N1CCOCC1	10	8
CC(NC(=O)c1cc(NC(=O)C(C)(C)CCl)ccc1N1CCCC1)c1ccccc1 (stereo not given)	-8	-2
CC(c1ccc(-c2cnn3cccnc23)cc1)N1CCCC1 (stereo not given)	22	10
COc1c(C)cc(C(=O)C2CCCN(C(=O)C3=C(C)OCCO3)C2)cc1C (stereo not given)	2	-1
CCn1c(C2CCCN(C(=O)CC34CC5CC(CC(O)(C5)C3)C4)C2)n[nH]c1=O (stereo not given)	14	9
CC(CNC(=O)CCN1Cc2cc(Cl)ccc2OC(C)C1)Oc1cccnc1 (stereo not given)	0	-6
COc1ccc(CNCc2cnn(-c3ccc(F)cc3F)c2)cc1O	3	10
Cc1ccccc1-n1ncc(C(=O)N2CCN(C)CC2)c1C(F)(F)F	4	5
CN(C)C1(CNS(=O)(=O)c2cccc3nsnc23)CCCCC1	-2	-4
COc1ccc(NC(=O)Cn2nc3n(c2=O)CCCCC3)c(OC)c1	0	13
O=C(O)[C@H]1C[C@@H](C(=O)NC2CC2)CN(C(=O)Cc2ccccc2F)C1	11	7
CCCc1ccc(-c2ccc(C(=O)Nc3cc(=O)n(-c4ccccc4)[nH]3)cc2)nc1	5	4
COC(=O)c1ccoc1COc1c(C)nn(C)c1C	-11	-13
COc1ccc(OC)c(/C=C/C(=O)N2CCC(C(=O)NCc3ccccc3)CC2)c1	-2	-3
C=CCN(Cc1nccn1Cc1ccccc1Cl)C(=O)c1ccc(F)cc1	11	23
CC(C)C1=CC23CCC4C(C)(C(=O)O)CCCC4(C)C2CC1C1C(=O)N(c2ccccc2)C(=O)C13 (stereo not given)	-2	-8
CCCCN(C(=O)C(Cl)c1ccccc1)C(C)c1nc2cc(Cl)ccc2c(=O)n1-c1ccc(C)cc1 (stereo not given)	24	23
CNC(=O)[C@@]1(OCc2cccc(C(F)(F)F)c2)CC(OCc2cccc(OC(F)(F)F)c2)[C@H](O)[C@H](O)C1 (stereo not given in full)	7	15
CC(=O)OCCOCn1cnc2c(=O)[nH]c(N)nc21	1	-2
O=C(Cc1ccccc1)NCCNc1ccc(Nc2cccnc2)nn1	3	3
CCc1cccc(NC(=O)Cn2nc3c(cc2=O)CCCC3)c1	-25	-28
Cc1cc(C)cc(-c2nc3ccccn3c2NC(=O)CCl)c1	0	5
CCCCOC(=O)/C=C/c1ccc(OC(=O)OC)c(OC(=O)OC)c1	-8	-12
CCOc1ccccc1NC(=O)c1c(NC(C)=O)sc2c1CCCC2	3	2
CCCCSc1nnc2c(n1)OC(c1cc(OC)ccc1OC)Nc1ccccc1-2 (stereo not given)	5	2
C=CCN=c1scc(-c2cccc(Br)c2)n1N=Cc1cc2c(cc1[N+](=O)[O-])OCO2	-11	-12
COc1ccccc1OCC(=O)Nc1ncc(Cc2ccccc2Cl)s1	2	4
CCOC(=O)C1(CCCc2ccccc2)CCN(C(=O)c2ccc(=O)n(C)n2)CC1	6	4
COc1cccc(C(CN2CCN(C(=O)CCc3ccccc3)CC2)OCc2cccc(Cl)c2)c1 (stereo not given)	-3	8
COC(=O)c1c(C)oc2ccc(N(C(=O)c3ccncc3)S(=O)(=O)c3c(C)cc(C)cc3C)cc12	2	-1
COCCNc1ccc(S(C)(=O)=O)cc1[N+](=O)[O-]	2	8
O=C(NCc1ccncc1)c1csc(CSc2nnc(-c3ccco3)n2-c2ccc(Cl)c(Cl)c2)n1	-8	-5
Cc1cccc(Nc2ncccc2C(=O)NC(c2ccccc2)c2ccc(Cl)cc2)c1C (stereo not given)	-17	-19
Cc1nc2ccc(NC(=O)C3(C)CCN3CC(C)C)cc2o1 (stereo not given)	6	4
COc1ccc(-n2ccnc(SCc3ccc(F)cc3)c2=O)cc1	-12	-16
C[C@H](NC(N)=O)C(=O)OCC(=O)NC12CC3CC(CC(C3)C1)C2	3	14
OCc1ccc(-c2nccn2Cc2noc(-c3ccccc3)n2)o1	1	5

7 entries already listed, ordered by molar mass, ascending.
SMILES	NPYLR7 ag	NPYLR7 ag max-min
COC(=O)c1ccoc1COc1c(C)nn(C)c1C	-11	-13
O=C(C(=O)N1CCC2(CCOCC2)CC1)N1CCOCC1	10	8
O=C(NCCCN1CCCC1)C1CCC(=O)N1C1CCCCC1 (stereo not given)	5	3
O=C(NC1CC(=O)N(CCc2ccc(F)cc2)C1)c1cnccn1 (stereo not given)	29	29
O=C(O)[C@H]1C[C@@H](C(=O)NC2CC2)CN(C(=O)Cc2ccccc2F)C1	11	7
Cc1ccccc1-n1ncc(C(=O)N2CCN(C)CC2)c1C(F)(F)F	4	5
CC(CNC(=O)CCN1Cc2cc(Cl)ccc2OC(C)C1)Oc1cccnc1 (stereo not given)	0	-6

Further entries follow:
SMILES	NPYLR7 ag	NPYLR7 ag max-min
Cc1cc(C(=O)NCc2ccc(CN3C(=O)NC(C)(C)C3=O)cc2)c(C)s1	2	0
CCN(CC)c1c(C)nc2ccc(C(=O)NCCCN3CCCC3=O)cn12	-10	-11
COc1cccc(-c2nc(C)c(-c3ccc(SCC(=O)N4CCCCC4)nn3)s2)c1	4	-14
CCOC(=O)c1c(NC(=O)COc2ccc(Cl)cc2)sc(C(=O)Nc2ccccc2F)c1C	-3	-6
